# VACV mCherry inh: vaccinia inhibition (mCherry reporter) | Vaccinia virus mCherry reporter infection, fluorescence; about a quarter of the inactives have no number | Potency, µM (series often up to 36.5 µM), for inactives: at the top dose activity change, negative = inhibition, most hits filed as inhibitors | hit rate 0.63% among 310,000 | AID 720579; active = well fitted inhibition curve with a large enough effect; inconclusive = small, poorly fitted or top-dose-only effect; inactive = no such curve, though single readings can be large or run the other way; tested in A549 cells; further: nearly all actives have a fitted effect of over 35% in size; inactives centre near -10
# VACV Venus inh: vaccinia inhibition (Venus reporter); hit rate 0.46% among 330,000; AID 720580; Potency, µM (titrated, usually from 36.5 µM), for inactives: at the top dose activity change, negative = inhibition, most hits filed as inhibitors; Vaccinia virus Venus reporter expression, fluorescence; active means well fitted inhibition curve with a large enough effect; inconclusive means small, poorly fitted or top-dose-only effect; inactive means no such curve, though single readings can be large or run the other way; tested in A549 cells; further: nearly all actives have a fitted effect of over 30% in size; inactives centre near -10
# Active calls of the source: *; i = inactive; u = inconclusive; x = no result given; & = joins results of further samples; [ ] = remark or other dose. On the % scale 0 is the no-effect control and ±100 the full control effect; potency means the concentration at half of the fitted maximal effect.
SMILES,VACV mCherry inh,VACV Venus inh
COc1ccc(N2CCN(CCCNC(=O)c3cc(Nc4ccccc4OC)nc4ccccc34)CC2)cc1,u,-28%
CCOC(=O)C(C)Sc1nc2c(c(=O)[nH]c(=O)n2C)n1CCc1ccccc1 (stereo not given),x,-27%
Cc1ccc2oc(=O)c3cnn(CC(=O)Nc4cccc(C(F)(F)F)c4)c3c2c1,-1%,-7%
CCOC(=O)CSc1nnc(CNc2cccc(Cl)c2)n1-c1ccccc1,-15%,-4%
CC12CCC(=O)N1C(C(=O)OCC(=O)Nc1cc(S(=O)(=O)N3CCCCC3)ccc1Cl)CS2 (stereo not given),i,-11%
Cc1ccc(S(=O)(=O)NC(C)C(=O)Nc2ccc(C(N)=O)cc2)cc1 (stereo not given),-17%,-11%
CCCCN(C(=O)CC1CCCCC1)c1c(N)n(CC(C)C)c(=O)[nH]c1=O,-14%,-9%
O=C1NC(=O)N(c2ccccc2)C(=O)/C1=C/c1ccoc1,-8%,36%[activator]
Cc1ccc(CNC(=O)C2CCN(S(=O)(=O)c3ccc4c(c3)oc(=O)n4C)CC2)cc1,-9%,-7%
COc1cc2c(cc1NC(=O)COC(=O)[C@@H](NS(=O)(=O)c1cccc(Cl)c1)C(C)C)oc1ccccc12,-19%,u
CC(=O)Nc1nc2ccc(NC(=O)c3ccco3)cc2s1,-17%,-20%
Oc1c(C(c2ccccc2)N2CCCCC2)sc2ncnn12 (stereo not given),15%,2%
Cc1ccccc1-n1c(C)cc(/C=C2/C(=N)N3C(c4ccccc4)=CSC3=NC2=O)c1C,-26%,-15%
COc1cc2c(cc1OC)C(COc1ccc(F)cc1)N(C(=O)Cc1ccccc1)CC2 (stereo not given),-3%,-9%
CN1CCCC2c3ccccc3CCC21 (stereo not given),-9%,-8%
COCCNC(=O)/C(C#N)=C/c1ccc(-c2ccc(OC)cc2[N+](=O)[O-])o1,x,-1%
CC1=C(C(=O)Nc2cccc(C)c2C)C2(CCCCC2)OC1=O,-7%,-6%
Cc1cc(C)n2c(Nc3ccc(C(C)C)cc3)c(-c3ccsc3)nc2n1,-22%,-14%
Cc1ccc(C(=O)NCCc2cc3ccc(C)c(C)c3[nH]c2=O)cc1[N+](=O)[O-],-4%,-7%
Nc1nc(N2CCOCC2)cc(=O)[nH]1,x,-18%

# The list goes on, starting with the last 3 of the part before.
SMILES,VACV mCherry inh,VACV Venus inh
Cc1cc(C)n2c(Nc3ccc(C(C)C)cc3)c(-c3ccsc3)nc2n1,-22%,-14%
Cc1ccc(C(=O)NCCc2cc3ccc(C)c(C)c3[nH]c2=O)cc1[N+](=O)[O-],-4%,-7%
Nc1nc(N2CCOCC2)cc(=O)[nH]1,x,-18%
Cc1ccc(S(=O)(=O)N2CCCC2CNC(=O)C(=O)Nc2ccc(F)cc2)cc1 (stereo not given),u,u
O=C(COC(=O)Cc1ccc(Cl)cc1Cl)NCc1ccco1,i,-11%
Cc1cccc(CN2[C@H](COC(=O)Nc3ccccc3)C=CS2(=O)=O)c1,i,-3%
COc1cc2oc3ccc(C#Cc4ccc(N)cc4)cc3c(=O)c2cc1OC,-22%,-17%
CC(C)N(CCNC(=O)C1CCN(S(=O)(=O)N2CCOCC2)CC1)Cc1ccccc1,x,-5%
Fc1ccccc1COc1ccccc1CNCc1ccncc1,i,-13%
O=C(COC(=O)/C=C/c1ccccc1)NCC1CCCO1 (stereo not given),-12%,12%
CC(C)Cc1nc(SCC(=O)N2CC(C)OC(C)C2)c2c(=O)n(C)c(=O)n(C)c2n1 (stereo not given),0%,-7%
COc1ccccc1CNc1ncnc2sc(C(=O)N3CCN(C)CC3)c(C)c12,-7%,-5%
O=C(Nc1ccccc1N1CCOCC1)c1ccc(Cl)nc1,-3%,-9%
CCOc1ccc(S(=O)(=O)N2CCC(C(=O)N3CCc4ccccc4C3)CC2)cc1,-18%,u
O=C(NCCCn1ccnc1)C(=O)NCC(c1ccco1)N1CCN(c2ccc(F)cc2)CC1 (stereo not given),-20%,-15%
O=S(=O)(NCc1ccco1)c1ccc2ccccc2c1,2%,-8%
O=C(NCCNc1ccc([N+](=O)[O-])cc1)c1ccccc1Cl,-13%,-9%
CS(=O)(=O)Nc1ccc(-c2n[nH]c(=S)n2-c2ccccc2)cc1,-4%,3%
CC(=O)c1c(C)n(Cc2ccccc2Cl)c2ccc(O)cc12,-12%,0%
COc1ccc(C(=O)N/C(=C\c2ccco2)C(=O)NC2CCS(=O)(=O)C2)cc1 (stereo not given),i,-1%
Cc1cc(NC(=O)C(C)SCC(=O)N(C)CC(=O)Nc2ccc(Br)cc2C)no1 (stereo not given),-2%,-19%
Cc1cccc(NC(=S)NNC(=O)c2nn(C)cc2Cl)c1,-13%,-5%
Cc1ccc(-n2[nH]c(C)c(/C=C3/C=Nc4ccccc43)c2=O)cc1C,x,-7%
CC(=O)c1ccc(NC(=O)COc2ccccc2C(=O)Nc2ccccc2)cc1,-13%&-11%,-28%&-20%
CCCC(C)NC1=NCCCCC1 (stereo not given),u,-3%
O=C(Nc1ccccc1)Nn1cnnc1,0%,-5%
NS(=O)(=O)c1ccc(CCNC(=O)CCCNC(=O)c2ccc(Cl)cc2)cc1,i,-6%
CCOC(=O)Cn1nc(-c2ccc(F)cc2)oc1=O,0%,-12%
COc1ccc(-c2nn(-c3ccccc3)cc2C(=O)NC2CCC(C)CC2)cc1 (stereo not given),i,-5%
COc1ccc(/C=N/NC(=S)Nc2ccccc2)cc1COc1cccc(C)c1C,i[7.34 µM],-4%[7.34 µM]
CC(C)(C)OC(=O)N/N=C\c1cccnc1,-8%,-10%
CCN(CC)c1ccc(/C=N/NC(=S)NCc2ccccc2)cc1,-8%,-22%
O=C(c1cc(F)c(F)c(F)c1F)N1CCN(C(=O)C2CCCO2)CC1 (stereo not given),-21%,u
CC(C)Cn1c(-c2cc([N+](=O)[O-])ccc2Cl)nc2c1c(=O)[nH]c(=O)n2Cc1ccccc1,-25%,-12%
CC(=O)Oc1ccc2c(=O)c(-c3ccccc3)coc2c1,3%,-2%
CCCCCCN1C[C@@H](O)[C@H](n2cc(COC(=O)c3ccccc3)nn2)C[C@@H]1c1ccc(OC)cc1,-14%,-19%
O=CNCCCc1nc2ccccc2n1CCc1ccccc1,-14%,-16%
CC1Cc2cc(-c3csc(NC(=O)Cc4cccs4)n3)ccc2N1S(C)(=O)=O (stereo not given),u,u
CC(C)C[C@@H](CO)N1CCN(Cc2ccc([N+](=O)[O-])cc2)CCC1=O,-24%&-7%,4%&2%
CCN(Cc1ccncc1)C(=O)c1cc(COc2ccc(C)c(C)c2)on1,i,-14%
Cc1nc(N=Nc2ccc(S(=O)(=O)O)cc2S(=O)(=O)O)c(COP(=O)(O)O)c(C=O)c1O,u,-5%
C=CCOc1nc2c(c(=O)n(C)c(=O)n2C)n1Cc1ccc(Cl)cc1,-15%,-25%
O=C(NNC(=O)c1ccc(Cl)c([N+](=O)[O-])c1)c1ccncc1,-9%,-15%

# 2 compounds drawn at random from those above, as already listed:
SMILES,VACV mCherry inh,VACV Venus inh
COc1ccc(/C=N/NC(=S)Nc2ccccc2)cc1COc1cccc(C)c1C,i[7.34 µM],-4%[7.34 µM]
COc1ccc(-c2nn(-c3ccccc3)cc2C(=O)NC2CCC(C)CC2)cc1 (stereo not given),i,-5%

# Returning to the listing; the six compounds before the break are reprinted first.
SMILES,VACV mCherry inh,VACV Venus inh
CC1Cc2cc(-c3csc(NC(=O)Cc4cccs4)n3)ccc2N1S(C)(=O)=O (stereo not given),u,u
CC(C)C[C@@H](CO)N1CCN(Cc2ccc([N+](=O)[O-])cc2)CCC1=O,-24%&-7%,4%&2%
CCN(Cc1ccncc1)C(=O)c1cc(COc2ccc(C)c(C)c2)on1,i,-14%
Cc1nc(N=Nc2ccc(S(=O)(=O)O)cc2S(=O)(=O)O)c(COP(=O)(O)O)c(C=O)c1O,u,-5%
C=CCOc1nc2c(c(=O)n(C)c(=O)n2C)n1Cc1ccc(Cl)cc1,-15%,-25%
O=C(NNC(=O)c1ccc(Cl)c([N+](=O)[O-])c1)c1ccncc1,-9%,-15%
N#Cc1nc(-c2cccs2)oc1N1CCN(Cc2ccccc2)CC1,-4%,u
CN1CCCC1CCNc1ccc2oc3ccccc3c(=O)c2c1 (stereo not given),-5%,-10%
c1ccc(Nc2cc(Nc3ccccc3)[nH]n2)cc1,-18%,-27%
COCCCn1c(SCC(=O)n2c(C)c(C)c3ccccc32)nnc1-c1ccoc1C,-13%,-7%
CC(CC(=O)O)CC(=O)Nc1ccccc1C(=O)O (stereo not given),-16%,-7%
O=C(Nc1nccs1)C(c1ccccc1)N1CCCCC1 (stereo not given),i,-11%
CCOC(=O)c1c(NC(=O)c2cc(C)oc2C)sc(C(=O)Nc2ccc(Cl)cc2)c1C,i,-7%
Cc1c2n(c3ccccc13)CCN(C)C2,-20%,-7%
COc1cccc(/C=N/N2C(=O)CSC2=S)c1O,35%[activator],63%[activator]
CCCCNC(=O)c1ccc2c(c1)C(=O)N(Cc1ccncc1)C2=O,-6%,-6%
Cc1cc(/C=C/c2ccnc3ccccc23)ccc1N(CCCl)CCCl,-26%,-26%
CCCC(=O)C1=C(O)C(c2cccc(Oc3ccccc3)c2)CCC1=O (stereo not given),-13%,-14%
Cc1cc(C(O)c2ncc(-c3ccc(Oc4ccccc4)cc3)[nH]2)ccc1F (stereo not given),u,-24%
Cc1nc(NC(=O)CSc2nnc(-c3ccncc3)n2C)sc1C,i,-8%
COc1ccc(C2=NS(=O)(=O)N(C)C(C(=O)N3CCCCC3C)=C2)cc1 (stereo not given),i,-14%
Cn1cnnc1SCc1ccccc1,i,1%
COc1ccc(NC(=O)c2ccccc2NC(=O)c2cccs2)cc1,-28%,-13%
COC(=O)c1ccccc1NC(=O)COC(=O)CO/N=C(\C)c1ccc2c(c1)OCO2,i,-10%
Cc1ccc(S(=O)(=O)NCc2nc3nc(C)cc(C)n3n2)cc1,1%,-3%
COc1ccc(C(=O)NC2CCN(C(=O)Nc3ccc(F)cc3)CC2)cc1,i,-10%
CC(=O)c1ccc(NC(=O)COCc2cc(-c3ccc(F)cc3)on2)cc1,-14%,-5%
CC(C)NC(=O)Nc1cccc2c1O[C@H](CN(C)S(C)(=O)=O)[C@@H](C)CN([C@H](C)CO)C2=O,i,-5%
O=C(Oc1ccc(Cl)cc1)c1ccc(N2CCOCC2)c([N+](=O)[O-])c1,i,-10%
CC(=O)Cn1ncc(N(C)Cc2ccccc2)c(Cl)c1=O,-10%,-7%
CCc1noc(C)c1C(=O)N1CCCC(CCC(=O)NCc2ccc(F)c(F)c2)C1 (stereo not given),i,-3%
COC(=O)c1ccc(N/C(C)=C/C(=O)c2ccc(C)o2)cc1,-6%,-10%
O=C(NCC(c1cccnc1)N1CCc2ccccc21)c1cccc(Br)c1 (stereo not given),-15%,-6%
O=C(NC1CC(=O)N(c2cccc(F)c2)C1)C1CC1 (stereo not given),-3%,-12%
CN(C)c1ccc(/C=C\C=C/c2ccnc3ccccc23)cc1,51%[activator],18%
COC(=O)c1c(NC(=O)CN2CCN(c3ncccn3)CC2)sc(C(N)=O)c1C,-7%,-8%
COc1ccccc1NC(=O)Cc1nnc(SCC(=O)Nc2ccc(F)cc2F)n1C,-14%,-2%
CSc1ncc(CN2CCc3c([nH]c4ccccc34)C2C(C)(C)C)cn1 (stereo not given),-9%,-17%
CCc1ccc(N2CCN(S(=O)(=O)CC34CCC(CC3=O)C4(C)C)CC2)cc1 (stereo not given),i,-13%
Cn1c(=O)c2c(SCc3ccccc3)nc(C3CC3)nc2n(C)c1=O,i,-9%
O=C(COC(=O)c1nc(Cl)ccc1Cl)NC1CCCCCC1,-15%,-9%
Cc1ccc(N(CC(=O)N/N=C/c2cccs2)S(C)(=O)=O)cc1,i,-9%
O=C(Cn1c(-c2cccs2)cc2ccccc21)N1CCN(c2ccc(Cl)cc2)CC1,-1%,2%
CC(=O)Nc1cc(-c2ccoc2)cn2c(-c3ccccc3)cnc12,31%[activator],1%
CCN(C(=O)c1cn(C)c(=O)c2cc(OC)c(OC)cc12)c1cc(C)ccc1C,-29%,-22%
O=C(O)Cn1cc(/C=C2\C(=O)NC(=O)N(Cc3ccco3)C2=O)c2ccccc21,i,24%
O=C(c1cc(-c2ccc(Cl)c(Cl)c2)on1)N1CCOCC1,i,-13%
CCCCNC(=O)C1(NC(=O)Nc2ccc(C)cc2)CCCCC1,5%,-5%
O=C(NCc1ccc(F)cc1)c1cccc2c1C(=O)c1ccc(N3CCOCC3)cc1S2(=O)=O,i,-27%
O=C(CSc1nc2ccccc2s1)N/N=C/c1ccco1,-13%,-22%
COCCCNC(=O)CC1C[C@H](C(=O)N(C(C)C)C(C)C)[C@@]2(C)c3[nH]c4ccccc4c3CCN2C1=O (stereo not given in full),-1%,-11%
COc1ccc(C(=O)OCC(=O)c2ccc(Br)s2)c(OC)c1,i,-15%
CC1(NC(=O)c2cccc(S(=O)(=O)N3CCN(c4ccc(F)cc4)CC3)c2)CCS(=O)(=O)C1 (stereo not given),-19%,-18%
Cc1cc(N2CCN(c3cccc(C(F)(F)F)c3)CC2)n2ncnc2n1,x,-21%
N#Cc1ccc(CSc2nc(N)cc(N)n2)cc1,i,-14%
COc1ccc(/C=C/C(=O)NC(=S)NN2CCCCC2c2cccnc2)cc1 (stereo not given),-28%,-13%
C/C(=N\NC(=O)C(c1ccncc1)N1CCOCC1)c1ccc(Br)cc1 (stereo not given),i,-8%
O=C(NNc1c(Cl)cncc1Cl)c1cccs1,-1%,17%

# Screening results deposited in PubChem BioAssay by National Center for Advancing Translational Sciences (NCATS).
